PABP polyA inh = PABP poly(A) RNA binding inhibitors, primary screen, biochemical, fluorescence polarization, uHTS | Polyadenylate-binding protein 1 (Homo sapiens), P11940 | inhibition, % at 35 µM | actives 1% (n = 290,000) | AID 2014, 2009;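 active means 50% or more with normal probe brightness, or confirmed in later tests; about a fifth of its hits are not listed in these tables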;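 further: calls also rest on retests at 20 µM and on dose response follow-up; controls were probe without protein and protein plus probe with vehicle; some compounds called inactive have numbers as strong as hits; many hits fall short of the cut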
Target sequence (P11940 whole entry, looked up): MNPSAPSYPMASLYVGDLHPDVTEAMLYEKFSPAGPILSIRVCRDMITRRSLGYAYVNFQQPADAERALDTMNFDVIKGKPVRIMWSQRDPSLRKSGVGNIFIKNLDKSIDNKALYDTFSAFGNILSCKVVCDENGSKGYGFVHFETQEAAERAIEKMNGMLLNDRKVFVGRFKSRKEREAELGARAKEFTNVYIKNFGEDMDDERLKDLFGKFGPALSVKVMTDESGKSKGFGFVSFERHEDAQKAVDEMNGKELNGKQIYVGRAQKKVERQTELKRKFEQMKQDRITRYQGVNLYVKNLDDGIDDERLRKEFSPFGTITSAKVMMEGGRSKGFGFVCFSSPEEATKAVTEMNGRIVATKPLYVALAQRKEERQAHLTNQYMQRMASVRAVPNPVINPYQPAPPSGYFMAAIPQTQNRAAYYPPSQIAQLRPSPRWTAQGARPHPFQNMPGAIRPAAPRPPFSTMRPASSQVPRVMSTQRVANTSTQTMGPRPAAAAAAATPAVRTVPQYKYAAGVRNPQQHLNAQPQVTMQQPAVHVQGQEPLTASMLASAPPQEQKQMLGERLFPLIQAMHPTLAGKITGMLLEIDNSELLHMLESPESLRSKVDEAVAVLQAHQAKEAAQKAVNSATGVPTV
CSC inhib = cancer stem cell viability inhibitors, primary screen, luminescence. cancer stem cell-like cells viability. inhibition, % at 7.5 µM. actives 1.1% (n = 300,000);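 active means mean at 75% or more and at least half the replicates too; tested in HMLE shEcad cells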;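 further: 0% = median of negative and 100% = median of positive control wells; the first replicate is given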
Yeast UUG start = modulators of yeast start codon fidelity, primary screen, whole organism, S. cerevisiae, single point, plate reader | S. cerevisiae UUG-firefly luciferase reporter, luminescence/redox ratio | actives 0.13% (n = 350,000) | activity score, % at 18.7 µM | AID 602363, 2012;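 active means replicate mean at a twofold rise or more, about +100% in these data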;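 further: firefly luciferase made from a UUG start codon reports start codon fidelity; reporter light over untreated wells divided by growth signal over untreated wells; some hits fall short of that in this replicate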
Rce1 inh = yeast Rce1p protease inhibitors, primary screen, biochemical, fluorescence, cell-free homogeneous; CAAX prenyl protease 2 (Saccharomyces cerevisiae (strain ATCC 204508 / S288c)), Q03530; yeast membranes, quenched prenylated peptide cleavage fluorescence; calls only; actives 0.27% (n = 290,000); AID 2563, 2010;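 active means fall in fluorescence gain of 50% or more versus controls, with final raw signal at or below 3038400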;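 further: plate controls were neutral control wells for no effect and wells lacking membranes for full effect; tested at 10 µM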
Target sequence (Q03530 whole entry, looked up): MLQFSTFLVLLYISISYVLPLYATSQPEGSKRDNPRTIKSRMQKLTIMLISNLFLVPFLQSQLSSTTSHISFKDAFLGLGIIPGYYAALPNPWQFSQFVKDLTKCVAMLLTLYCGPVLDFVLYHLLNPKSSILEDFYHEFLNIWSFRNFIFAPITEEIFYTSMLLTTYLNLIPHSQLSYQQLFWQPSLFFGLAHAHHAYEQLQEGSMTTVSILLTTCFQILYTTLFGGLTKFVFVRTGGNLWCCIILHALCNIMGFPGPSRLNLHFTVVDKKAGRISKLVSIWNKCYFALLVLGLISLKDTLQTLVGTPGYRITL
eIF4H FP inh = human eIF4H binding inhibitors, primary screen, translation initiation inhibitor project, biochemical, uHTS, fluorescence polarization | eIF4H fluorescence polarization binding assay | inhibition, % at 35 µM | actives 0.94% (n = 290,000);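 active means 50% or more with normal probe brightness, or confirmed in later tests; about a fifth of its hits are not listed in these tables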;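 further: calls also rest on retests at 20 µM and on dose response follow-up; 0% = protein and probe with vehicle and 100% = probe without protein; strong numbers were not always called active; many hits fall short of the cut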
HIV Env fusion = inhibitors of HIV-1 Env-driven cell-cell fusion, primary screen, HeLa-JRFL effector, CEM21 target cells, luciferase | inhibition, % at 12.3 µM | actives 1.1% (n = 360,000);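 active means mean replicate inhibition score of at least 50 and every replicate individually at or above 50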;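 further: 0% = plate neutral controls and 100% = maraviroc near 300 nM; one replicate is shown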
MT1-MMP act inh = blockers of MT1-MMP proenzyme processing, primary screen, HT1080 RFP-PRO-GFP cells, GFP/RFP fluorescence. Matrix metalloproteinase-14 (Homo sapiens), P50281. GFP/RFP ratio fluorescence, overnight; percent of plate control window, DMSO zero. actives 0.061% (n = 360,000). GFP/RFP ratio change, % at 20 µM;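 active means GFP/RFP ratio change of at least 30% with cell ATP level not reduced by more than half and red fluorescence within 50% of control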; further: strong numbers were not always called active
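Material: RFP-PRO-GFP reporter HT1080 cells. Dosing: single-point 20 µM compound, 1% DMSO. Controls: DMSO and RFP-L50D-GFP cell wells. Timing: cells overnight before dosing, compound overnight, 37 °C, 5% CO2. Measure: GFP/RFP fluorescence ratio.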
eIF4H FP inh retest = recorded beside eIF4H FP inh, whose call it bears; inhibition, %; compound at 20 µM; confirmation average;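 mean of two retest wells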
PABP polyA inh retest = recorded beside PABP polyA inh, whose call it bears; inhibition, %; compound at 20 µM; confirmation repeats;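 mean of two retest wells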
MT1-MMP act inh RFP = second read-out of MT1-MMP act inh, no call of its own (marks repeat the call); RFP signal change, %; measured here: RFP expression control read;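 0 = vehicle wells; hits needed this value within 50% of zero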
Numbers without * were called inactive; i = inactive; / = not tested or not shown.

SMILES | PABP polyA inh | CSC inhib | Yeast UUG start | Rce1 inh | eIF4H FP inh | HIV Env fusion | MT1-MMP act inh | MT1-MMP act inh RFP | others
N/C(=N\OC(=O)c1cccc2ccccc12)c1ccc(Br)cc1 | 14 | -3 | / | i | 12 | -17 | 1 | 1
Cc1ccsc1-c1ccnc(-n2cccc2)n1 | 9 | -13 | -23 | i | 5 | i | -2 | 4
O=C(NNc1ccc(F)cc1F)c1c(F)cccc1Cl | 0 | 1 | / | i | -6 | 5 | 1 | 2
O=C(Nc1ccc(S(=O)(=O)N2CCCc3ccccc32)cc1)C1CCCO1 (centres undefined) | -11 | / | / | i | -14 | / | 4 | 0
Cc1ccc(S(=O)(=O)N2CCN(C(=O)CSc3ccc(F)cc3)CC2)cc1 | -1 | -10 | -14 | i | -1 | 12 | 0 | 0
CC1Cc2cc(/C(O)=C3/C(=O)C(=O)N(CCN4CCOCC4)C3c3ccc(N(C)C)cc3)ccc2O1 (centres undefined) | -6 | -8 | -13 | i | -6 | -12 | 0 | 5
CC(=O)Nc1ccc(NC(=O)c2cc[n+]([O-])cc2)cc1 | -3 | -10 | -7 | i | 9 | 3 | -4 | 3
CN(C(=O)c1cccnc1)c1nnc(-c2cnccn2)s1 | -3 | -12 | -16 | i | 3 | -55 | 6 | 3
O=C1c2cccc3cccc(c23)C(=O)N1CCCSc1ncn[nH]1 | -2 | -14 | -22 | i | -4 | -14 | 1 | -3
CSCc1cc(N(C)C)nc(SCc2ccc(Cl)cc2Cl)n1 | -2 | 24 | -23 | i | -6 | / | -2 | -5

Brought forward from above: 3 entries, then new ones.
SMILES | PABP polyA inh | CSC inhib | Yeast UUG start | Rce1 inh | eIF4H FP inh | HIV Env fusion | MT1-MMP act inh | MT1-MMP act inh RFP | others
CN(C(=O)c1cccnc1)c1nnc(-c2cnccn2)s1 | -3 | -12 | -16 | i | 3 | -55 | 6 | 3
O=C1c2cccc3cccc(c23)C(=O)N1CCCSc1ncn[nH]1 | -2 | -14 | -22 | i | -4 | -14 | 1 | -3
CSCc1cc(N(C)C)nc(SCc2ccc(Cl)cc2Cl)n1 | -2 | 24 | -23 | i | -6 | / | -2 | -5
Cc1cc(NC(=O)CN2C(=O)NC(CCc3ccccc3)C2=O)no1 (centres undefined) | -10 | -6 | / | i | 1 | 9 | -2 | 1
CCN=C1SC(CC(=O)Nc2ccc(C)cc2)C(=O)N1CC (centres undefined) | 6 | -5 | -12 | i | -5 | / | 2 | 4
Cc1nnc(NC(=O)C2CCCN2S(=O)(=O)c2ccc(Cl)cc2)s1 (centres undefined) | 6 | 4 | / | i | 2 | -14 | 6 | 4
Nc1cc2c(cc1Cl)-c1ccccc1C2 | / | / | 1 | / | / | -14 | -5 | -4
Cc1cccc(C(=O)Nc2ccc(C(=O)N/N=C/c3ccco3)cc2)c1 | / | 15 | -12 | i | / | 10 | -2 | 6
COC(=O)c1ccc(/C=C2\N=C(SC)SC2=O)cc1 | -7 | 16 | / | i | 4 | -30 | 1 | 2
Cc1ccc(NC(=O)CSc2ccccc2NC(=O)c2ccccc2Cl)cc1Cl | -2 | 39 | -19 | i | -2 | 14 | -8 | -11
Cc1ccc(S(=O)(=O)c2nc(N3CCOCC3)sc2Cl)cc1 | 8 | -9 | 4 | i | 2 | / | 1 | -3
CNc1oc(-c2ccc(F)cc2)nc1S(=O)(=O)c1ccccc1 | -3 | -11 | -2 | i | -6 | 20 | 5 | -2
COc1ccc(CC(=O)N/N=C/c2cc([N+](=O)[O-])cc(Br)c2O)cc1 | 2 | 21 | -14 | i | 12 | -2 | 6 | 1

Brought forward from above: four entries, then new ones.
SMILES | PABP polyA inh | CSC inhib | Yeast UUG start | Rce1 inh | eIF4H FP inh | HIV Env fusion | MT1-MMP act inh | MT1-MMP act inh RFP | others
Cc1ccc(NC(=O)CSc2ccccc2NC(=O)c2ccccc2Cl)cc1Cl | -2 | 39 | -19 | i | -2 | 14 | -8 | -11
Cc1ccc(S(=O)(=O)c2nc(N3CCOCC3)sc2Cl)cc1 | 8 | -9 | 4 | i | 2 | / | 1 | -3
CNc1oc(-c2ccc(F)cc2)nc1S(=O)(=O)c1ccccc1 | -3 | -11 | -2 | i | -6 | 20 | 5 | -2
COc1ccc(CC(=O)N/N=C/c2cc([N+](=O)[O-])cc(Br)c2O)cc1 | 2 | 21 | -14 | i | 12 | -2 | 6 | 1
CC(C)n1cc(/C=N/NC(=O)COc2cccc3cccnc23)c2ccccc21 | 5 | 9 | / | i | 3 | 6 | 2 | -5
Cc1ccc(C(=O)OCC(=O)NCC(F)(F)F)cc1C | -3 | -3 | / | i | -1 | -10 | 1 | 5
COC(=O)Nc1ccc(S(=O)(=O)N2CCCCC2)cc1 | -5 | 12 | -8 | i | -8 | 10 | -1 | -3
Cc1cc(C)c(C(=O)Cn2nc(C)c([N+](=O)[O-])c2C)cc1C | -1 | 6 | / | i | -6 | 9 | -3 | 0
Cc1cc(C(=O)NNC(=O)c2c(-c3c(Cl)cccc3Cl)noc2C)no1 | 1 | -7 | -10 | i | 3 | / | -2 | 6
CC(c1ccncc1)C(C)c1ccncc1 (centres undefined) | / | -3 | -7 | i | / | 2 | -1 | 0
COCCNC(=O)c1ccc(CS(=O)(=O)c2cccc(C(F)(F)F)c2)o1 | 12 | -9 | -19 | i | 2 | 4 | -3 | 3
COc1cc2cc(CN(CCCN3CCOCC3)C(=O)Nc3ccccc3F)c(=O)[nH]c2cc1OC | -9 | -3 | / | i | -4 | 0 | 1 | 0
Cc1ccc(OCC(=O)Nc2ccc(N3CCN(C(=O)c4ccco4)CC3)cc2)cc1 | -5 | 17 | / | i | -7 | 5 | 5 | -1
O=C(C/C=N/OCc1ccc(Cl)cc1Cl)c1ccc(Cl)cc1 | -2 | 2 | -17 | i | -6 | -40 | 0 | 7
O=C(Nc1cccc(C(=O)Nc2cccc(Br)c2)c1)c1ccccc1 | -3 | 24 | -10 | i | -6 | 2 | 2 | -4
COc1ccccc1OCCNC(=O)CCNC(=O)c1ccccc1Cl | -5 | -3 | -2 | i | -5 | -3 | 1 | 3
O=C(/C=C/c1ccc(Cl)cc1)Nc1cc(S(=O)(=O)N2CCOCC2)ccc1N1CCOCC1 | / | 13 | -12 | / | / | -7 | 0 | 0
c1ccc(Oc2ccc(-c3ccn[nH]3)cc2)cc1 | 15 | -4 | / | i | 0 | -32 | 3 | 0
O=C(ON=C1CCN(c2ccc([N+](=O)[O-])cc2)CC1)c1ccccc1 | 1 | / | 12 | i | -2 | -30 | 10 | 1
CN(C)N1C(N)=C(C#N)C(c2cccc3ccccc23)C2=C1CC(c1ccccc1)CC2=O (centres undefined) | 3 | 80* | / | i | -4 | / | -19 | -26
COc1cccc(OCCOc2cccc(/C=N/n3cnnc3)c2)c1 | -1 | 5 | -19 | / | 0 | -46 | 0 | -6
CCOC(=O)c1cc(C(=O)n2cc(Cl)cn2)nn1C | 13 | -11 | / | i | -4 | / | 2 | 4
OCC[C@H]1C[C@@H](O)[C@H](O)[C@]2(CCCCO2)O1 | 2 | 2 | -13 | i | 2 | -6 | 0 | 1
CCOC(=O)C1CCN(C(=O)Cc2ccccc2OC)CC1 | -5 | -9 | -12 | i | -7 | 24 | -1 | -1
O=C(NN=C(Cc1ccccc1)Cc1ccccc1)c1ccccc1F | 1 | 9 | / | i | 1 | -5 | 5 | 4
CCCOc1cccc(-c2cc(C(=O)N/N=C/c3ccccn3)c3ccccc3n2)c1 | -6 | 33 | -9 | i | 11 | 14 | 8 | -9
Cc1oc(/C=N/NC(=O)CN(c2ccccc2Cl)S(C)(=O)=O)cc1Br | 9 | -3 | / | i | 3 | / | 1 | 3
COc1ccc(-n2nc(C(=O)NCC(=O)O)c3ccccc3c2=O)cc1 | 8 | -11 | -14 | i | 1 | -9 | 4 | 5
Cc1cc(CSc2ccccc2)ccc1NC(=O)c1ccc(Br)cc1 | -6 | 3 | / | i | 4 | -11 | 2 | 1
Cc1nnc(SCC(=O)Nc2ccc(Br)cc2)n(N)c1=O | 2 | 1 | -1 | i | 2 | -9 | 5 | 2
O=C(COc1ccc2ccccc2c1)Nc1nc2ccccc2[nH]1 | 3 | 12 | -21 | / | -13 | / | -1 | 5
O=C(CN1C2=NCCCN2c2ccccc21)c1cccs1 | -2 | -3 | -8 | i | -9 | / | 1 | 3
COc1cccc2cc(C(=O)N3CCN(C(=O)c4ccccc4)CC3)c(=O)oc12 | -1 | 16 | 2 | i | -6 | / | 8 | 0
COc1ccc(-c2nc3c4ccccc4ccn3c2CN2CCCCC2)cc1OC | 6 | -25 | -9 | i | -4 | 8 | -3 | 3
Nc1ccc(-c2ccc(N)cc2C(F)(F)F)c(C(F)(F)F)c1 | 2 | 4 | -21 | i | -8 | / | 1 | -6
CC(C)OC(=O)c1nnn(-c2nonc2N)c1CN1CCCCCC1 | 20 | -9 | -9 | i | -6 | -50 | 2 | 3
NCCCC[C@H]1CNC(=S)N1CC1(c2ccccc2)CC1 | 0 | -5 | -22 | i | -9 | -8 | 2 | 6
CC1(C)CC(NC(=O)Cc2ccc(Cl)cc2)CC(C)(C)N1 | -2 | -12 | 0 | i | 10 | -5 | -4 | -1
COc1ccc(NC(=O)C2(c3ccccc3)CCCC2)cc1 | 0 | 18 | / | i | -9 | 23 | 0 | 2
Cc1cc(C(=O)NC2CCCc3ccccc32)no1 (centres undefined) | 2 | -3 | 10 | i | -6 | 7 | -7 | -2
C=CCn1c(SCC(=O)Nc2ccc(Cl)cn2)nnc1C1CC1 | 0 | -7 | -9 | i | 102 | 1 | -1 | 1 | eIF4H FP inh retest=-4;PABP polyA inh retest=10
COc1ccccc1N(C(=O)Cn1nnc2ccccc21)C(C(=O)NCc1ccco1)c1ccc(C)o1 (centres undefined) | -7 | -11 | -5 | i | -15 | / | -1 | 0
CO/N=C/c1ccc(N2CCN(C(=O)c3cccc(Cl)c3)CC2)c([N+](=O)[O-])c1 | 10 | 1 | -10 | i | -4 | 14 | 4 | -4
COc1cc(NC(=O)C2CC(c3c(F)cccc3Cl)=NO2)c(OC)cc1Cl (centres undefined) | 4 | -1 | -17 | i | -19 | 9 | -1 | -8
CC[n+]1oc(-c2ccccc2)cc1C | -7 | 1 | / | i | 5 | 9 | 10 | 5
COc1ccc(C/C(C)=N/NC(=S)Nc2ccccc2)cc1 | -9 | -7 | -17 | i | 2 | -90 | 1 | 1
COC(=O)c1cc(=O)n(CCc2ccccc2)c(=Nc2ccc(F)cc2)s1 | -4 | 60 | -19 | i | -1 | -25 | -1 | -3

Some of these compounds in order of SMILES length, lowest first:
SMILES | PABP polyA inh | CSC inhib | Yeast UUG start | Rce1 inh | eIF4H FP inh | HIV Env fusion | MT1-MMP act inh | MT1-MMP act inh RFP | others
Cc1nnc(SCC(=O)Nc2ccc(Br)cc2)n(N)c1=O | 2 | 1 | -1 | i | 2 | -9 | 5 | 2
COC(=O)c1cc(=O)n(CCc2ccccc2)c(=Nc2ccc(F)cc2)s1 | -4 | 60 | -19 | i | -1 | -25 | -1 | -3
CC(C)n1cc(/C=N/NC(=O)COc2cccc3cccnc23)c2ccccc21 | 5 | 9 | / | i | 3 | 6 | 2 | -5

Source: PubChem (several laboratories)

Not all compounds are listed, so the mix of outcomes need not match the whole.
